VDR inh: inhibitors of human vitamin D receptor; AID 504847; 0.93% of 400,000 active; Potency, µM, for inactives: max response, negative = inhibition, hits mostly inhibitors; VDR-SRC2-3 peptide fluorescence polarization, 2 h; active = well fitted inhibition curve with a large enough effect; inconclusive = small, poorly fitted or top-dose-only effect, or another doubt; inactive = no such curve, though single readings can be large or run the other way; also: series mostly up to about 120 µM
Target sequence (P11473 whole entry, looked up): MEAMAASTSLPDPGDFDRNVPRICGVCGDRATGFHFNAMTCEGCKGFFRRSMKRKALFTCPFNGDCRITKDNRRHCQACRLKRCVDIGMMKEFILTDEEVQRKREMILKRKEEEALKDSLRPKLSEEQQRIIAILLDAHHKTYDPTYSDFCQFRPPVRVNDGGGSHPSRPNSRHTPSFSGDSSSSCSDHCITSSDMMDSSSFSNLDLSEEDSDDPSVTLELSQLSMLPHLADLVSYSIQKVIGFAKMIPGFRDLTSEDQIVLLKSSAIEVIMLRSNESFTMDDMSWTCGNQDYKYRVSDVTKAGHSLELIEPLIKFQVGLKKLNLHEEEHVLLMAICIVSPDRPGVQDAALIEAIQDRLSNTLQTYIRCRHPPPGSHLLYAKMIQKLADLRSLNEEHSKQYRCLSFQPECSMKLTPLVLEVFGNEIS
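The screen uses fluorescence polarization to detect compounds that interfere with recruitment of the SRC2-3 coactivator peptide to VDR; plates are read after 2 h at room temperature.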
* marks the source's active call; other numbers are inactive results; ? = inconclusive; & = joins results of further samples; [ ] = remark or other dose. % is scaled to controls: 0 for no effect and ±100 for the full control effect; potency is read from the fitted curve at half-maximal effect.

VDR inh | Molecule
2.7% | c1ccc(-c2ccc(Oc3cc(N4CCOCC4)nc(-c4ccccc4)n3)cc2)cc1
-1.8% | O=C(/C=C/c1cc[n+](CC(=O)c2ccc3cccc4c3c2CC4)cc1)c1ccc2cccc3c2c1CC3
3.2% | CN1CCC(N(C)C(=O)c2cc(-c3ccc(F)cc3)nc3ccccc23)CC1
-15.8% | O=C(NCCN1CCN(c2ccccc2)CC1)c1cccn2c(=O)c3cc(Cl)ccc3nc12
12.2% | CCN1CCN(C(=O)c2ccc3c(=O)n(CCc4ccccc4)c(=O)[nH]c3c2)CC1
12.6% | COc1ccccc1NS(=O)(=O)c1cc([N+](=O)[O-])ccc1N/N=C/c1c(C)[nH]c2ccccc12
-11.6% | COC(=O)c1cc2ccsc2n1CC(=O)N(C)C1CCCCC1
-7.4%&-2.1% | CCOc1ccc(NS(=O)(=O)c2c(C)nc3sc(CC)nn3c2=O)cc1
-22.0% | COc1ccc(NC(=O)CSc2nc3ccccc3c(=O)[nH]2)cc1S(N)(=O)=O
-1.0% | CCOc1ccc(-c2cc(CCCC(=O)NCCc3ccc(OC)c(OC)c3)no2)cc1
9.7% | Cc1ccc(SCc2nc(-c3ccc(C(=O)NCc4ccc(Cl)cc4)cc3)oc2C)cc1
-7.5% | COc1ccc(OC)c(CC(=O)Nc2ccc3c(c2)CCC3)c1
-6.3% | O=C(Nc1nnc(Cc2ccccc2F)s1)c1ccccc1Cl
-2.5% | CCN(c1ccccc1)S(=O)(=O)c1cc(C(=O)NCC(c2ccc(OC)cc2)N(C)C)ccc1C (configuration not stated)
32.7%[activator] | O=C(c1cc(S(=O)(=O)N2CCOCC2)ccc1Cl)N1CCN(c2ccccn2)CC1
-22.3% | CN(C)/C=C1\SC(=S)N(c2ccc(Br)cc2)C1=O
-22.0% | CCN(CC)S(=O)(=O)c1ccc(C(=O)N2CC(=O)Nc3ccc(F)cc3C2c2ccccc2)cc1 (configuration not stated)
5.9% | O=C(NCCCN=C1NS(=O)(=O)c2ccccc21)c1ccccc1Cl
-4.9% | CC(=O)Nc1ccc(SCC(=O)c2cc(C)n(Cc3cccs3)c2C)cc1
-0.3% | O=C(CCCOc1ccccc1)Nc1ccccc1C(F)(F)F

Fetched one by one from above, two records:
VDR inh | Molecule
-4.9% | CC(=O)Nc1ccc(SCC(=O)c2cc(C)n(Cc3cccs3)c2C)cc1
-1.8% | O=C(/C=C/c1cc[n+](CC(=O)c2ccc3cccc4c3c2CC4)cc1)c1ccc2cccc3c2c1CC3

(further entries)
VDR inh | Molecule
3.5% | Cc1cc(C)cc(-n2nnn(C3C/C(=N/NC(N)=S)C4OCC3O4)c2=S)c1 (configuration not stated)
-5.1% | CN(CC(=O)Nc1ccc(Cl)c(S(=O)(=O)N2CCOCC2)c1)C(=O)c1ccc(C#N)cc1
-12.6% | COc1ccc2[nH]c(=O)c(C(c3nnnn3C(C)(C)C)N(Cc3ccco3)CC3CCCO3)cc2c1 (configuration not stated)
-16.4% | CCN(CC)CCNC(=O)C1(O)c2cc(Br)ccc2NC(=O)N1c1ccc(Cl)cc1 (configuration not stated)
-12.3% | Cc1csc(NC(=O)CSc2nnc(NC(=O)COc3ccc(Cl)cc3)s2)n1
13.1% | COc1ccccc1N(C)C(=O)Cn1c(=O)oc2cc(S(=O)(=O)N3CCCC3)ccc21
1.1% | Cc1sc(NC(=O)c2ccco2)c(C(c2cccnc2)N2CCN(CCO)CC2)c1C (configuration not stated)
-0.8% | Cc1cccc(C)c1NC(=O)C(C)N1CCCCC1 (configuration not stated)
-11.4% | CC(=O)Nc1ccc(N2C(=O)C3C4C=CC(CC4)C3C2=O)cc1 (configuration not stated)
4.1% | CN(C)c1ccc(C(O)Cc2nc3ccccc3n2C)cc1 (configuration not stated)
2.4% | O=C(NCc1ccco1)c1cccc(-c2nnc(-c3ccccc3)o2)c1
-13.3% | CCOC(=O)c1c(C)[nH]c(C(=O)N/N=C\c2ccccc2O)c1C
11.4% | COc1ccc(NC(=O)CC2COc3ccccc3O2)c(OC)c1 (configuration not stated)
-15.5% | O=C(Nc1ccnc(=O)[nH]1)c1sc2ccccc2c1Cl
14.9% | COc1ccccc1CCNC(=O)C1(C)CC1(Cl)Cl (configuration not stated)
-10.0% | CCCCNC(=S)NNC(=O)c1csc(C)c1CC
-1.4% | S=C(Nc1ccc(Nc2ccccc2)cc1)Nc1ccccn1
2.5% | COc1cc(CNCCO)ccc1OC1CCCC1
-0.6% | COC(=O)C(NNc1ccccc1)(NC(=O)c1ccccc1F)C(F)(F)F (configuration not stated)
-6.1% | C[C@H](CO)N1C[C@H](C)[C@@H](CN(C)Cc2ccc3c(c2)OCO3)Oc2c(NS(C)(=O)=O)cccc2C1=O
? | CCOc1ccccc1NC(=O)/C(C#N)=C/c1c(C)nn(-c2ccccc2)c1Cl
-9.8% | COc1ccc(CNCCC(c2ccc3c(c2)OCO3)c2ccccc2OC)cc1 (configuration not stated)
5.2% | COC(=O)Cn1c(=O)cnc2ccccc21
-3.2% | CCS(=O)(=O)c1ccc2c(c1)N(S(=O)(=O)c1ccc(OC)cc1)CC(C(=O)O)O2 (configuration not stated)
-4.3% | N#Cc1c(/N=C/c2ccco2)sc2c1CCCCC2
4.5% | O=C(c1ccc(Cl)c(S(=O)(=O)NCc2ccco2)c1)N1CCN(c2ccc(F)cc2)CC1
6.3% | CCc1ccc(C2C(C#N)=C(N)Oc3cc(N)ccc32)cc1 (configuration not stated)
-3.8% | O=C(CNC(=O)c1ccc(Cl)cc1Cl)OCc1cn2cc(Br)ccc2n1
-8.2% | Cc1ocnc1C(=O)Nc1ccc(Cl)cc1
-14.9% | Cc1cc(NC(=O)c2ccc(F)cc2)ccc1-c1cc2ccccc2oc1=O
-20.4% | CCOc1ccc(NC(=O)CSc2nc3c(c(=O)n2C)SC(C)C3)cc1 (configuration not stated)
7.1% | CCN(CC)C(=O)[C@]1(c2ccccc2)C[C@@H]1CN
-6.6% | Cc1ccc(S(=O)(=O)n2nc(-n3c(C)ccc3C)c3c(F)cccc32)c2ccccc12
-0.3% | COc1cc(NC(=O)CSc2nc(C)c(C(=O)Nc3ccccc3)c(-c3ccc(OC)c(OC)c3)c2C#N)c(OC)cc1Cl
-11.1% | O=C(CSc1nnnn1-c1cccnc1)Nc1ccc(F)cc1F
6.9% | CSCCC(NS(=O)(=O)c1ccc2c(c1)oc(=O)n2C)C(=O)N1CCN(c2cccc(Cl)c2)CC1 (configuration not stated)
-9.1% | CC(C)(C)OC(=O)N1CCC[C@H]1c1nnc(SCc2c(Cl)cccc2Cl)o1
-11.8% | COc1ccc(N2CCN(C(=O)Cn3ncc4c3-c3cc(C)ccc3OC4)CC2)cc1
-11.2% | OC(COc1ccc(Br)cc1)CN1CCN(c2ccccc2)CC1 (configuration not stated)
-18.7% | Cc1nnc(SCC(=O)NCc2ccc(Cl)cc2)[nH]c1=O

Part of the list above, reformatted.
mol | VDR inh
O=C(CSc1nnnn1-c1cccnc1)Nc1ccc(F)cc1F | -11.1%
COc1ccc(N2CCN(C(=O)Cn3ncc4c3-c3cc(C)ccc3OC4)CC2)cc1 | -11.8%
CSCCC(NS(=O)(=O)c1ccc2c(c1)oc(=O)n2C)C(=O)N1CCN(c2cccc(Cl)c2)CC1 (configuration not stated) | 6.9%
CC(C)(C)OC(=O)N1CCC[C@H]1c1nnc(SCc2c(Cl)cccc2Cl)o1 | -9.1%
CCN(CC)C(=O)[C@]1(c2ccccc2)C[C@@H]1CN | 7.1%

Continuation.
VDR inh | Molecule
-18.5% | Cc1ccc(NC(=O)c2nc[nH]c2C(=O)N(C)Cc2ccccc2)cc1
5.9% | Cc1nn(-c2ccc(N3CCOCC3)nn2)c(C)c1CCC(=O)Nc1ccc(F)cc1F
1.6% | O=C(Cn1cnc(S(=O)(=O)N2CCCCC2)c1)Nc1ccc(OC(F)(F)F)cc1
15.4% | CCc1nn(C(C)C(=O)NCc2cccc(OC)c2)c(=O)c2cc3occc3n12 (configuration not stated)
-15.1% | C/C(=N\Nc1nc(-c2cc(C)ccc2C)cs1)c1cc2ccccc2oc1=O
-4.9% | CCCN1CCC(NC(=S)Nc2cccc(Cl)c2Cl)CC1
11.4% | COc1ccc(CCNC(=O)CSc2nc3ccccc3nc2Cc2ccc(Cl)cc2)cc1OC
-11.8% | O=C(C[C@@H]1C/C=C\C[C@@H](NC(=O)OCC2c3ccccc3-c3ccccc32)C(=O)OC[C@@H](Cc2ccccc2)NC1=O)NCCO
? | C=CCCC1CN(Cc2ccco2)S(=O)(=O)c2c(F)cccc2O1 (configuration not stated)
8.0% | O=C1CC(c2ccsc2)c2ccc3ccccc3c2N1 (configuration not stated)
7.4% | CS(=O)(=O)NN1C(=O)c2ccccc2NC1c1cccc(O)c1 (configuration not stated)
-3.1% | O=C1NCCC/C1=N/Nc1cc(F)ccc1F
-7.5% | O=C1c2ccccc2S(=O)(=O)N1CC1CC(c2ccccc2Cl)=NO1 (configuration not stated)
2.9% | CC1CN(C(=O)CCC(=O)NCc2ccc(F)cc2)c2cc(Cl)ccc2O1 (configuration not stated)
14.4% | Cc1ccc(/C=C/C(=O)OCn2nnc3ccccc3c2=O)o1
? | COc1n[nH]c(C(=O)Nc2nc3ccccc3s2)c1[N+](=O)[O-]
-19.9% | CC(C)c1ccc(C2NC(=S)NC3=C2C(=O)CC(C)(C)C3)cc1 (configuration not stated)
-21.9% | CCOC(=O)CSc1cccc2cccnc12
-5.1% | Cc1cc(C)n(-c2nc3ccccc3nc2N2CCN(S(=O)(=O)c3ccc4ccccc4c3)CC2)n1
? | S=C(Nc1ccc(Br)cc1Cl)Nn1cnnc1
-7.0% | COc1ccccc1C(=O)NNC(=O)CN1C(=O)c2ccccc2C1=O
-3.7% | Cc1ccc(-c2csc3ncnc(N4CCN(Cc5ccccc5)CC4)c23)cc1
-6.5% | NS(=O)(=O)c1ccc(CNC(=O)/C=C/c2cccc([N+](=O)[O-])c2)cc1
-19.2% | Cn1c2ccccc2c2nnc(SCC(N)=O)nc21
0.4% | Cc1cc(=O)[nH]c(SC/C=C/c2ccccc2)n1
? | C[C@@H](NC(=O)[C@@H]1Cc2ccccc2CN1C(=O)OC(C)(C)C)C(=O)NC1CCCC1
-25.1% | CCN(CC)Cc1oc(-c2ccccc2)cc1C(=O)O
? | CN(C)c1ccc(-c2cncnc2N(C)Cc2ccco2)cc1
-12.8% | COc1ccc(-n2c(=O)[nH]cc(C(=O)Nc3ccccc3)c2=O)cc1
0.5% | Cc1cc(C)c(C=NNc2nc3c([nH]2)c(=O)n(C)c(=O)n3C)c(C)c1
-4.6% | Cc1cc(C)cc(C(=O)N2CCCCCC2)c1
6.2% | Cc1nnc(SCC(=O)c2c(N)n(Cc3ccccc3)c(=O)n(C)c2=O)n1C
10.8% | COc1ccc(NS(=O)(=O)c2cc(C(=O)O)ccc2C)cc1
-16.2% | COc1ccc(C(=O)c2oc3ccccc3c2NC(C)=O)cc1
-4.3% | COc1ccc(C(=O)COC(=O)[C@H](C)Nc2ccc(C(F)(F)F)cc2[N+](=O)[O-])c(OC)c1
-13.7% | COc1cccc(C2=NOC(C(=O)Nc3cc(C)nn3-c3ccccc3)C2)c1OC (configuration not stated)
9.6% | COc1ccc(CNC(=O)c2cc(-c3ccc(Br)s3)nc3ccccc23)c(OC)c1
-9.9% | CCc1c(C(=O)Nc2cc(C(=O)OC)ccc2C)csc1C
18.2% | COc1ccc(C2C3=C(CC(C)(C)CC3=O)Oc3ncn4nc(-c5ccccc5)nc4c32)cc1 (configuration not stated)
-1.8% | O=C(COC(=O)/C=C/c1ccc([N+](=O)[O-])cc1)NC1CCCCC1
-9.5% | C=C1CCN(C(C(=O)NCc2ccc(Cl)c(Cl)c2)C(C)C)S(=O)(=O)c2ccccc21 (configuration not stated)
-8.1% | CC(C)c1c(C(=O)N/N=C/c2ccc3c(c2)OCO3)nnn1-c1nonc1N
-1.7% | COc1ccc(C(=O)NNC(=S)NC(=O)c2cccnc2)cc1
2.3% | CCCOc1ccc(NC(=O)CC2C(=O)N(C)C(=S)N2Cc2cccs2)cc1 (configuration not stated)
5.7% | O=C1CC(NS(=O)(=O)c2cccs2)CN1c1ccccc1 (configuration not stated)
-7.2% | O=C(CSc1cnc2ccccc2n1)c1ccc(F)cc1
7.9% | COc1ccc(-c2nc3sc(CCNC(=O)c4ccc(Br)o4)c(C)n3n2)cc1
12.1% | Cc1c(Cl)cccc1NC(=O)CSc1ncnc2c1sc1ccccc12
3.5% | CC12COC3(C(=O)Nc4ccccc4F)CC1CCC32C (configuration not stated)
-1.9% | COc1ccc(NC(=O)C2CSC3c4ccccc4C(=O)N23)cc1 (configuration not stated)

Arranged by the number under VDR inh (largest number first): some entries from above.
SMILES	VDR inh
COc1ccccc1N(C)C(=O)Cn1c(=O)oc2cc(S(=O)(=O)N3CCCC3)ccc21	13.1%
Cc1ccc(NC(=O)c2nc[nH]c2C(=O)N(C)Cc2ccccc2)cc1	-18.5%
CCN(CC)S(=O)(=O)c1ccc(C(=O)N2CC(=O)Nc3ccc(F)cc3C2c2ccccc2)cc1 (configuration not stated)	-22.0%

Next part.
VDR inh | Molecule
8.0% | Cc1nc2ccccc2n1CCc1nc2c3ccccc3nc(SCc3ccc(F)cc3)n2n1
11.6% | CCOC(=O)c1nc[nH]c1C
-1.9% | CC(C)(C)Cn1nc(-c2ccc(Cl)cc2)c2c(N)ncnc21
-10.4% | COc1ccc(C(=O)NCC2(N3CCCCC3)CCCCC2)cc1S(=O)(=O)N(C)C
-1.6% | CCCC(c1nnnn1Cc1ccc(OC)cc1)N1CCN(c2ccccc2)CC1 (configuration not stated)
-29.4% | C=CCn1c(=O)c2ccccc2n2c(SCC(=O)c3ccccc3)nnc12
-11.2% | Cc1ccnc(NS(=O)(=O)c2ccc(NC(=O)Cc3ccc(Br)cc3)cc2)n1
-8.2% | COc1ccc([C@@H]2[C@@H]3C(=O)N(C(C)(C)C)C(=O)[C@@H]3[C@]3(Cc4ccccc4)C(=O)N(c4ccc(OC)cc4)C(=O)N23)cc1
-13.2% | Cc1ccc(S(=O)(=O)N(CC(=O)c2ccc(Cl)cc2)C(=O)N2CCN(C)CC2)cc1

The list is partial; count on the stated rates, not on these rows.
